# Assay outcomes as filed in PubChem BioAssay.
# PABP polyA inh: PABP-poly(A) binding inhibition | PABP-poly(A) RNA binding, fluorescence polarization | inhibition, % at 35 µM | 1% of 290,000 active | AID 2014;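 active means 50% or more with normal probe brightness, or confirmed in later tests; inconclusive means above 50% with abnormal brightness, or retests that disagree; inactive means below 50% or failed in later tests; about a fifth of its hits are not listed in these tables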;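 further: calls also rest on retests at 20 µM and on dose response follow-up; controls were probe without protein and protein plus probe with vehicle; some compounds called inactive have numbers as strong as hits; many hits fall short of the cut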
# Target sequence (P11940 whole entry, looked up): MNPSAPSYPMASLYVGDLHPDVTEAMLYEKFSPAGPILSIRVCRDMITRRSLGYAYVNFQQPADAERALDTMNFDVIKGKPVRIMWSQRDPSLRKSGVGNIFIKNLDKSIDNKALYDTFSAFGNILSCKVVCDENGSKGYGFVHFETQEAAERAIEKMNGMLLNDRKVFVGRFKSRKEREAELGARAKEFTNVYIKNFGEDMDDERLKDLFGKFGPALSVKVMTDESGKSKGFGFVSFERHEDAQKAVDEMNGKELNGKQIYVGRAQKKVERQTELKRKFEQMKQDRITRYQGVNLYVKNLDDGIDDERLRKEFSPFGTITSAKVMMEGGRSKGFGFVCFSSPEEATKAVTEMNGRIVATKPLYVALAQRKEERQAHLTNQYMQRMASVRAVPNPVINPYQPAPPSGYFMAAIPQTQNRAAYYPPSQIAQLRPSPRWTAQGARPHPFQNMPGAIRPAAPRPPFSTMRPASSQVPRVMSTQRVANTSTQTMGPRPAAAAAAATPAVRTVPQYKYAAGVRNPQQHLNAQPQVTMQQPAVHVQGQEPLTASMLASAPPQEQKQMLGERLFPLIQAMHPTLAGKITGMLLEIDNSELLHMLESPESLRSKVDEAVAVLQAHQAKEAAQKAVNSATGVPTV
# eIF4H FP inh: inhibitors of RNA binding by human eIF4H. Q15056. eIF4H fluorescence polarization binding assay. inhibition, % at 35 µM. 0.94% of 290,000 active. AID 2012;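 active means 50% or more with normal probe brightness, or confirmed in later tests; inconclusive means above 50% with abnormal brightness, or retests that disagree; inactive means below 50% or failed in later tests; about a fifth of its hits are not listed in these tables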;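 further: calls also rest on retests at 20 µM and on dose response follow-up; 0% = protein and probe with vehicle and 100% = probe without protein; strong numbers were not always called active; many hits fall short of the cut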
# Rce1 inhib: inhibitors of yeast Ras-converting enzyme. Q03530. yeast membranes, quenched prenylated peptide cleavage fluorescence. calls only. 0.27% of 290,000 active;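 active means fall in fluorescence gain of 50% or more versus controls, with final raw signal at or below 3038400; inconclusive means same 50% fall but final raw signal above 3038400; inactive means fall in fluorescence gain under 50%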;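 further: plate controls were neutral control wells for no effect and wells lacking membranes for full effect; tested at 10 µM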
# HIV Env fusion: blocks HIV Env-driven cell-cell fusion. HeLa-JRFL Env/CEM21 cell fusion, luciferase. inhibition, % at 12.3 µM. 1.1% of 360,000 active;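 active means mean replicate inhibition score of at least 50 and every replicate individually at or above 50; inconclusive means only one of the two criteria met; inactive means mean below 50 and not all replicates reaching 50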;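 further: 0% = plate neutral controls and 100% = maraviroc near 300 nM; one replicate is shown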
# MT1-MMP act inh: MT1-MMP (human) activation inhibition | P50281 | HT1080 RFP-PRO-GFP cells, GFP/RFP ratio fluorescence, overnight; percent of plate control window, DMSO zero | GFP/RFP ratio change, % at 20 µM | 0.061% of 360,000 active;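 active means GFP/RFP ratio change of at least 30% with cell ATP level not reduced by more than half and red fluorescence within 50% of control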; further: strong numbers were not always called active
#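 Assay system – RFP-PRO-GFP reporter HT1080 cells · Compound dosing – single dose of 20 µM compound, 1% DMSO final · Incubation – overnight compound exposure at 37 °C · Measure – GFP/RFP fluorescence ratio · Benchmarks – DMSO wells and RFP-L50D-GFP cells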
# CSC inhib: cancer stem cell inhibition. cancer stem cell-like cells viability, luminescence. inhibition, % at 7.5 µM. 1.1% of 300,000 active. AID 2717;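 active means mean at 75% or more and at least half the replicates too; inconclusive means mean and replicates disagree; tested in HMLE shEcad cells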;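 further: 0% = median of negative and 100% = median of positive control wells; the first replicate is given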
# Yeast UUG start: alters start codon recognition fidelity in yeast | S. cerevisiae UUG-firefly luciferase reporter, luminescence/redox ratio | activity score, % at 18.7 µM | 0.13% of 350,000 active | AID 602363;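 active means replicate mean at a twofold rise or more, about +100% in these data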;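 further: firefly luciferase made from a UUG start codon reports start codon fidelity; reporter light over untreated wells divided by growth signal over untreated wells; some hits fall short of that in this replicate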
# eIF4H FP inh retest: further read-out of eIF4H FP inh, marked with its call; inhibition, %; compound at 20 µM; confirmation average;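 mean of two retest wells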
# PABP polyA inh retest: second read-out of PABP polyA inh, no call of its own (marks repeat the call); inhibition, %; compound at 20 µM; confirmation repeats;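 mean of two retest wells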
# MT1-MMP act inh RFP: further read-out of MT1-MMP act inh, marked with its call; RFP signal change, %; measured here: RFP expression control read;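 0 = vehicle wells; hits needed this value within 50% of zero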
# Active calls of the source: *; i = inactive; ? = inconclusive; / = no result given.
SMILES,PABP polyA inh,eIF4H FP inh,Rce1 inhib,HIV Env fusion,MT1-MMP act inh,MT1-MMP act inh RFP,CSC inhib,Yeast UUG start,others
COc1ccc(-c2ncncc2-c2ccccc2)c(O)c1,-2,-3,i,29,-8,-9,-13,-15,
COc1ccccc1CSc1ncc(-c2ccc([N+](=O)[O-])cc2)[nH]1,5,-4,i,/,-5,-15,17,/,
COc1ccc(CC(=O)c2ccccc2C(=O)O)cc1,-1,-8,i,/,-5,2,-4,-5,
O=C(COC(=O)Cc1ccc(Cl)cc1)Nc1ccc2[nH]c(=O)[nH]c2c1,/,/,i,2,3,7,0,/,
COc1ccc(S(=O)(=O)N2CCC(C(=O)NCCCN3CCOCC3)CC2)cc1,-8,-1,i,0,-1,0,-7,3,
CCn1c(O)c(C=Nc2ccccc2)sc1=O,-1,8,i,-10,-6,-5,-1,/,
COc1cc(C(=O)OCC(=O)NCCCc2ccccc2)ccc1OCC(C)C,4,-10,i,-19,0,5,4,-6,
CC1(C)C(C=C(Cl)Cl)C1C(=O)N/N=C/c1ccccc1F (configuration not stated),4,-1,i,-6,1,-6,16,-28,
O=C(CSc1ccccc1[N+](=O)[O-])NC1CCS(=O)(=O)C1 (configuration not stated),10,4,i,-14,3,5,/,/,
O=S(=O)(c1ccc(F)cc1)n1ccc(-c2cccc(OCc3c(F)cccc3Cl)c2)n1,-9,1,i,31,-6,-2,0,-19,
CCc1ccc(C2C(C#N)=C(N)N(N3CCOCC3)C3=C2C(=O)CC(C)(C)C3)s1 (configuration not stated),-2,9,i,19,-4,6,4,/,
Cn1cc(Cl)c(C(=O)N2CCN(c3ncccn3)CC2)n1,5,5,i,-113,2,5,12,-21,

# 7 entries from above, ordered by molecular weight, low to high:
SMILES,PABP polyA inh,eIF4H FP inh,Rce1 inhib,HIV Env fusion,MT1-MMP act inh,MT1-MMP act inh RFP,CSC inhib,Yeast UUG start,others
CCn1c(O)c(C=Nc2ccccc2)sc1=O,-1,8,i,-10,-6,-5,-1,/,
COc1ccc(CC(=O)c2ccccc2C(=O)O)cc1,-1,-8,i,/,-5,2,-4,-5,
COc1ccc(-c2ncncc2-c2ccccc2)c(O)c1,-2,-3,i,29,-8,-9,-13,-15,
O=C(CSc1ccccc1[N+](=O)[O-])NC1CCS(=O)(=O)C1 (configuration not stated),10,4,i,-14,3,5,/,/,
COc1cc(C(=O)OCC(=O)NCCCc2ccccc2)ccc1OCC(C)C,4,-10,i,-19,0,5,4,-6,
CCc1ccc(C2C(C#N)=C(N)N(N3CCOCC3)C3=C2C(=O)CC(C)(C)C3)s1 (configuration not stated),-2,9,i,19,-4,6,4,/,
O=S(=O)(c1ccc(F)cc1)n1ccc(-c2cccc(OCc3c(F)cccc3Cl)c2)n1,-9,1,i,31,-6,-2,0,-19,

# (cont.)
SMILES,PABP polyA inh,eIF4H FP inh,Rce1 inhib,HIV Env fusion,MT1-MMP act inh,MT1-MMP act inh RFP,CSC inhib,Yeast UUG start,others
Nc1nc(N)c(Br)c(Nc2ccc(Cl)c(Cl)c2)n1,/,/,/,27,4,-4,/,-7,
COc1ccc(NC(=O)C2CCCN(c3cc(C)nc4ncnn34)C2)cc1 (configuration not stated),0,-6,i,8,4,-4,-15,-10,
CC1=C(C(N)=O)C(c2cccnc2)n2nc(-c3cccc(Cl)c3)nc2N1 (configuration not stated),-4,-4,i,-10,5,7,15,-20,
O=C(N/N=C/c1c[nH]c2ccccc12)c1sc2ccccc2c1Cl,7,-11,i,-111,-81,-4,47,-14,
Clc1ccc(-c2cc(-c3ccccn3)on2)c(Cl)c1,1,-9,i,-102,-1,-2,13,-59,
Cc1csc(N/N=C/c2ccc(O)c([N+](=O)[O-])c2)n1,23*,68*,i,-132,16,-5,/,-27,eIF4H FP inh retest=90*;PABP polyA inh retest=51*
CC1CN(CCCCOc2ccc(C(C)C)cc2)CC(C)O1 (configuration not stated),2,-2,/,?,7,1,46,-7,
CCOC(=O)c1cccc(NC(=O)c2cc(C)nn2-c2ccccc2)c1,0,2,i,2,-1,0,-8,-20,
CS/C(=N\S(=O)(=O)c1cccs1)Nc1cccc(Cl)c1C,1,-9,i,5,-9,-1,16,-32,
CC(C)CC(OC(=O)c1cccs1)C(=O)NCC1CCCO1 (configuration not stated),2,-12,i,-75,3,4,-4,-20,
COc1ccc(S(=O)(=O)N2CCN(C(=O)Cc3ccsc3)CC2)cc1,/,/,/,7,-2,-2,/,1,
Cc1ccccc1CNC(=O)c1ccccc1N,-5,0,i,/,3,-2,/,-3,
CC1(C)CC(=O)C2=C(C1)N(C1CCCCC1)C(=O)C2(O)C(F)(F)F (configuration not stated),-2,0,i,-14,2,4,-9,-11,
CCOc1ccc(S(=O)(=O)N2CCCC(C(=O)NCc3ccncc3)C2)cc1 (configuration not stated),-2,-14,i,42,-4,-7,4,-11,
CCCCNC(=O)Cc1c(O)c2ccccc2[nH]c1=O,6,0,i,13,0,6,-5,-8,
CSc1nc(C)nc(C2CC2)c1C#N,-8,-4,i,-10,-1,1,0,-7,
N#CCC(=O)N/N=C/c1ccc(SCC(=O)Nc2ccccc2)o1,-6,3,i,5,-1,5,-7,/,
CC1=CCC2C(=O)N(c3cccc(C(=O)N(C)C4CCCCC4)c3)C(=O)C2C1 (configuration not stated),7,0,i,-1,3,0,-10,4,
COc1ccc(S(=O)(=O)N2CCC3(CC2)OCCN3S(=O)(=O)c2ccc(OC)cc2)cc1,/,/,i,6,3,-13,-11,-13,
O=C(NCCCN1CCOCC1)c1ccc(CS(=O)(=O)Cc2ccc(Cl)cc2)o1,-3,3,i,-60,4,7,-5,/,
Cc1cc(C)cc(NC(=S)Nc2ccc(Cl)c(Cl)c2)c1,5,-3,i,14,3,2,41,-14,
CC(=O)NCc1ccc(S(=O)(=O)N2CCCN(C)CC2)cc1,16,-11,i,8,0,2,-13,-15,
C/C(=C\c1cc(C(=O)O)c(C)o1)CO,12,-3,i,18,5,3,-6,39,
Cc1ccc(NC(=O)C2CCN(C(=O)NC3CCCCC3)CC2)cc1,-1,-10,i,18,7,6,-1,9,
Cc1ccccc1-n1c(SCC(=O)c2c(N)n(C)c(=O)n(C)c2=O)nc2sc3c(c2c1=O)CCCC3,-17,-15,i,/,-2,-2,/,/,
CN(CC(=O)Nc1sc2c(c1C#N)CCCCC2)Cc1nc2ccccc2c(=O)[nH]1,8,2,i,9,-8,-6,/,/,
Cc1cccc(C2c3[nH]c4ccccc4c3CCN2Cc2ccc(C)s2)n1 (configuration not stated),-7,3,i,-4,-7,-8,-8,/,
CCN(CC(=O)Nc1cccc(OC)c1)C(=O)c1ccncc1,-5,-6,/,8,4,1,-18,-4,
Cc1ccc(/C=C2\SC(=S)N(CCC(=O)NNC(=O)c3ccc(O)cc3)C2=O)cc1,-12,-13,i,-16,0,-6,3,1,
CC(=O)Nc1ccc(NC(=O)C(C)OC(=O)C2CCCC2)cc1 (configuration not stated),/,/,i,-34,-1,1,-6,-18,
Cc1cc(C)nc(SC2CC(=O)N(c3ccc(Br)cc3)C2=O)n1 (configuration not stated),-4,-9,i,0,3,4,-1,7,
O=C(CN1C(=O)/C(=C\c2ccc(F)cc2)Oc2ccccc21)NCc1ccco1,-17,-6,i,-76,-3,1,7,-9,
Cc1ccc2c(c1)N(CC(=O)Nc1ncccc1C)C(=O)C(C(C)C)O2 (configuration not stated),-7,3,i,5,0,3,0,-5,
COc1cc(NC(=O)COC(=O)c2ccccc2F)cc(OC)c1,3,-16,i,13,2,5,-8,-10,
CCN(CC)CCN(C(=O)c1ccc(C(C)=O)cc1)c1nc2ccc(Cl)cc2s1,2,4,i,-7,2,2,-12,/,
COc1ccc(-c2cc(C(=O)NCc3ccco3)c3ccccc3n2)cc1,-12,4,i,14,3,1,-2,-4,
CC1CCN(S(=O)(=O)c2ccc(S(=O)(=O)NCc3cccnc3)cc2)CC1,-7,-9,i,5,-2,-8,-13,/,
Cc1ncc(C[n+]2csc(CCOC(=O)CC3C4CC5CC(C4)CC3C5)c2C)c(N)n1 (configuration not stated),51*,28,i,11,-2,-4,18,0,
Cc1ccc(OCC(=O)N2CCN(C(=O)Cc3ccccc3)CC2)cc1,-10,-1,i,/,0,-1,-2,3,
Cc1cccc(OCCc2c(C)[nH]c(=S)[nH]c2=O)c1,0,-5,i,-42,-1,0,-11,-18,
Cc1ccc(C2=[N+]([O-])C3(CCCCC/C3=N\NC(N)=O)N(O)C2(C)C)o1 (configuration not stated),-6,4,i,/,1,2,5,-13,
CN(Cc1ccccc1Cl)C(=O)C1CCC(=O)N(CCc2cccc(F)c2)C1 (configuration not stated),-11,-4,i,3,-1,-2,-3,7,
COc1cccc(C(=O)OCC(=O)NC(C)CCc2ccccc2)c1O (configuration not stated),-2,0,i,-6,-1,0,-10,-5,
COP(=O)(OC)c1nc(-c2cccc3ccccc23)oc1NCc1ccccc1,-8,-2,i,/,-4,-6,9,-8,
CCCc1cc(=O)[nH]c(SCC(=O)Nc2nc(-c3ccccc3)cs2)n1,0,1,i,17,-2,-2,21,/,
COc1ccc(S(=O)(=O)Nc2cc(C)on2)cc1,5,-6,i,-11,0,0,-8,-13,
CSc1nc2ccc(NC(=O)CSc3nnc(N)s3)cc2s1,-2,-1,i,/,2,-4,-8,/,
Oc1c(C=Nc2ccccc2Cl)[nH]c2ccccc12,5,-3,i,-21,-34,4,21,/,
CCCCC(CC)C(=O)NCc1ccccc1OC (configuration not stated),12,-3,i,-15,2,4,-4,4,
COc1ccccc1NC(=O)c1ccc(NC(=O)C2COc3ccccc3O2)cc1 (configuration not stated),-1,-10,/,18,-2,-3,3,-2,

# Looked up by compound from the list above:
SMILES,PABP polyA inh,eIF4H FP inh,Rce1 inhib,HIV Env fusion,MT1-MMP act inh,MT1-MMP act inh RFP,CSC inhib,Yeast UUG start,others
O=C(CN1C(=O)/C(=C\c2ccc(F)cc2)Oc2ccccc21)NCc1ccco1,-17,-6,i,-76,-3,1,7,-9,
COc1ccc(S(=O)(=O)N2CCC3(CC2)OCCN3S(=O)(=O)c2ccc(OC)cc2)cc1,/,/,i,6,3,-13,-11,-13,
COc1ccc(NC(=O)C2CCCN(c3cc(C)nc4ncnn34)C2)cc1 (configuration not stated),0,-6,i,8,4,-4,-15,-10,
O=S(=O)(c1ccc(F)cc1)n1ccc(-c2cccc(OCc3c(F)cccc3Cl)c2)n1,-9,1,i,31,-6,-2,0,-19,
CCCCNC(=O)Cc1c(O)c2ccccc2[nH]c1=O,6,0,i,13,0,6,-5,-8,

# An excerpt; the hit share may differ from the screen's.
